MenB inh: M. tuberculosis MenB inhibitors, primary screen, biochemical, absorbance. 1,4-dihydroxy-2-naphthoyl-CoA synthase (Mycobacterium tuberculosis (strain ATCC 25618 / …. inhibition, %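 (about 12 µg/mL by stock and volumes)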. actives 0.43% (n = 100,000). AID 540299, 2011. MenB enzyme assay, absorbance read-out; some hits fall short of the stated cut;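 active = mean of two replicates above 30%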;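 note: 0% = no compound and 100% = wells with inactive enzyme; the first replicate is given; strong numbers were not always called active; inactives centre near -10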
Target sequence (P9WNP5 whole entry, looked up): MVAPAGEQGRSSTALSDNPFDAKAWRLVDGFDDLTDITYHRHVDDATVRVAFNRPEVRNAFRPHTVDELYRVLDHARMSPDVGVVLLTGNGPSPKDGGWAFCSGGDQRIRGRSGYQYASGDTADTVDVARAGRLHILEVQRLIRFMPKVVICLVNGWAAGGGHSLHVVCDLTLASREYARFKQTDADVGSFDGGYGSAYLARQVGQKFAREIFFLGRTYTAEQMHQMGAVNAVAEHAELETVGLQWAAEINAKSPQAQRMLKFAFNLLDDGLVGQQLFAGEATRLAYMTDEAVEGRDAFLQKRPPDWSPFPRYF
Polio RdRp inh: poliovirus RdRp elongation inhibitors, primary screen, biochemical, fluorescence polarization, total intensity; Genome polyprotein (Poliovirus type 1 (strain Mahoney)), P03300; poliovirus polymerase elongation; stronger effect = lower value; % elongation, % (compound at 16.7 µg/mL); actives 0.66% (n = 150,000); AID 588519, 2011; in the data active = % elongation below about 90%; note: some results filed as inactive read as strong as hits
MbtI inh: MbtI salicylate synthase inhibitors, primary screen, biochemical, fluorescence intensity. P9WFX0. purified MbtI enzyme, fluorescence intensity read-out. actives 0.89% (n = 100,000). AID 493033, 2011. inhibition, %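 (about 17 µg/mL by stock and volumes)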;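 active = above 50% in both replicates, above 80% if mildly self-fluorescent; inactive = the rest, strongly fluorescent compounds included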;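 note: 0% = mean of negative and 100% = mean of positive controls; one replicate is shown; some compounds called inactive have numbers as strong as hits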
Target sequence (P9WFX0 whole entry, looked up): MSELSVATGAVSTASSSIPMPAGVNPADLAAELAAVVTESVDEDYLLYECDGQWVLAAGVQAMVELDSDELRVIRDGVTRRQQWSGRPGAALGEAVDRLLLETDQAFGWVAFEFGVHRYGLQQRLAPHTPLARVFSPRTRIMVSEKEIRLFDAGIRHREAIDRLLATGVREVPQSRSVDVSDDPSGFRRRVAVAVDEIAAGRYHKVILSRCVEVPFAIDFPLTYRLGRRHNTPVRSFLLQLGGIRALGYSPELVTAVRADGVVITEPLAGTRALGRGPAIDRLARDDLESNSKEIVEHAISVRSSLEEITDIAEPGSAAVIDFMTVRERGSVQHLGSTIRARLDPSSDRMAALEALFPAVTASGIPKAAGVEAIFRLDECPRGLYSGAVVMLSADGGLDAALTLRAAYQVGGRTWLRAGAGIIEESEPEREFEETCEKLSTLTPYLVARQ
Polio RdRp inh intensity: also measured in Polio RdRp inh; calls as there; % elongation; measured here: total intensity read-out; formula for this scale not given here;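 total fluorescence in place of polarization; lower means less elongation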
* = called active by the depositor; & = joins results of further samples.

CCc1c(C)c(C#N)c2nc3ccccc3n2c1N1CCCC1 was read as MenB inh 14, Polio RdRp inh 100, MbtI inh -5 and Polio RdRp inh intensity 100.
Screening CC(C)(CO)NC(=S)NCC1CCCO1 (stereo unspecified) returned MenB inh 4, Polio RdRp inh 104, MbtI inh -8 and Polio RdRp inh intensity 107.
Screening Cc1cc(NC(=O)CCCC(=O)O)n(C)n1 returned MenB inh -13, Polio RdRp inh 104, MbtI inh -8 and Polio RdRp inh intensity 107.
For COc1ccc(N2CCN(Cc3cc(C(C)C)c(C)cc3O)CC2)cc1 the results were MenB inh -20, Polio RdRp inh 102, MbtI inh 10 and Polio RdRp inh intensity 106.
`Cc1ccc(CN2CC(C(=O)NCc3ccc(S(N)(=O)=O)cc3)CC2=O)cc1` (stereo unspecified) gave MenB inh -23, Polio RdRp inh 101, MbtI inh 4 and Polio RdRp inh intensity 93.
COC(=O)c1ccccc1NC(=O)c1nc2ncccn2n1 was read as MenB inh -13, Polio RdRp inh 104, MbtI inh 48 and Polio RdRp inh intensity 103.
For CC(C)(C)C1C/C(=C/c2ccco2)C(=O)/C(=C/c2ccco2)C1 (stereo unspecified) the results were MenB inh -105 and MbtI inh 13.
CCS(=O)(=O)c1nc(NC(C)=O)n[nH]1 was read as MenB inh 5, Polio RdRp inh 102, MbtI inh 1 and Polio RdRp inh intensity 102.
Screening O=C(CSc1nc(-c2ccccc2)cs1)N1CCN(S(=O)(=O)c2ccccc2)CC1 returned MenB inh -6, Polio RdRp inh 105, MbtI inh -12 and Polio RdRp inh intensity 109.
`O=c1nc2n(c3sc4c(c13)CCCC4)CC(O)=C2c1nc2ccccc2s1` gave MenB inh -8, Polio RdRp inh 105, MbtI inh 4 and Polio RdRp inh intensity 104.
`C=CCC(CN)(CC=C)c1ccc(OC)c(OC)c1` gave MenB inh 9, Polio RdRp inh 102, MbtI inh -8 and Polio RdRp inh intensity 104.
COc1ccc(C2(O)CC3CCC(C2)N3c2cc(C)nc(-c3ccccc3)n2)cc1 (stereo unspecified) was read as MenB inh -71, Polio RdRp inh 100, MbtI inh 6 and Polio RdRp inh intensity 101.
Screening CC1(C)CC(=O)c2cnc(NC(=O)c3ccc(Cl)cc3)nc2C1 returned MenB inh -26, Polio RdRp inh 101, MbtI inh 8 and Polio RdRp inh intensity 100.
For OC1CCCN(C(=S)NCc2ccccc2)C1 (stereo unspecified) the results were MenB inh -14, Polio RdRp inh 101, MbtI inh 2 and Polio RdRp inh intensity 103.
COc1ccc(-n2nc(C(=O)N(C)c3ccccc3)c3c4ccccc4n(C)c3c2=O)cc1 was read as MenB inh -20, Polio RdRp inh 103, MbtI inh 3 and Polio RdRp inh intensity 94.

Six compounds drawn at random from the list so far:
CCc1c(C)c(C#N)c2nc3ccccc3n2c1N1CCCC1 was read as MenB inh 14, Polio RdRp inh 100, MbtI inh -5 and Polio RdRp inh intensity 100.
For OC1CCCN(C(=S)NCc2ccccc2)C1 (stereo unspecified) the results were MenB inh -14, Polio RdRp inh 101, MbtI inh 2 and Polio RdRp inh intensity 103.
`C=CCC(CN)(CC=C)c1ccc(OC)c(OC)c1` gave MenB inh 9, Polio RdRp inh 102, MbtI inh -8 and Polio RdRp inh intensity 104.
For CC(C)(C)C1C/C(=C/c2ccco2)C(=O)/C(=C/c2ccco2)C1 (stereo unspecified) the results were MenB inh -105 and MbtI inh 13.
COc1ccc(-n2nc(C(=O)N(C)c3ccccc3)c3c4ccccc4n(C)c3c2=O)cc1 was read as MenB inh -20, Polio RdRp inh 103, MbtI inh 3 and Polio RdRp inh intensity 94.
`Cc1ccc(CN2CC(C(=O)NCc3ccc(S(N)(=O)=O)cc3)CC2=O)cc1` (stereo unspecified) gave MenB inh -23, Polio RdRp inh 101, MbtI inh 4 and Polio RdRp inh intensity 93.

Later entries:
Screening CCOc1cc(-c2noc(CCCC(=O)Nc3cccc(C)c3C)n2)cc(Br)c1OC returned MenB inh 3, Polio RdRp inh 101, MbtI inh 13 and Polio RdRp inh intensity 103.
`O=C(CSC(=S)N1CCOCC1)c1ccccc1` gave MenB inh -11, Polio RdRp inh 98, MbtI inh -16 and Polio RdRp inh intensity 102.
`Cc1cccc(NC(=O)NC(C)c2c(-n3cccc3)sc(C)c2C)c1C` (stereo unspecified) gave MenB inh -20, Polio RdRp inh 102, MbtI inh -5 and Polio RdRp inh intensity 99.
O=C(CSc1nc2ncc(Cl)cc2[nH]1)NN1C(=O)NC2(CCCCC2)C1=O was read as MenB inh -25, Polio RdRp inh 102, MbtI inh -2 and Polio RdRp inh intensity 103.
Screening O=C(O)C1CCCN(S(=O)(=O)N2CCCCC2)C1 (stereo unspecified) returned MenB inh -11, Polio RdRp inh 103, MbtI inh 2 and Polio RdRp inh intensity 101.
`CCCn1nc(C(=O)N2CCCCCCC2)c2ccccc2c1=O` gave MenB inh -24, Polio RdRp inh 100, MbtI inh 7 and Polio RdRp inh intensity 97.
CN1CCN(C/C=C/c2ccccc2)CC1 was read as MenB inh 10, Polio RdRp inh 100, MbtI inh -13 and Polio RdRp inh intensity 104.
For CC1=C(/C=C/C(C)=C/C=C/C(C)=C/C(=O)Nc2ccc(O)cc2)C(C)(C)CCC1 the results were MenB inh 8, Polio RdRp inh 101&101, MbtI inh -18 and Polio RdRp inh intensity 101&100.
Screening CCN(CC)c1ncc(Br)cn1 returned MenB inh 6, Polio RdRp inh 103, MbtI inh -4 and Polio RdRp inh intensity 103.
`COc1ccc2c(c1)C(=O)N(c1ccc(Cl)cc1)C(=O)/C2=C/N1CC(C)OC(C)C1` (stereo unspecified) gave MenB inh -15, Polio RdRp inh 100, MbtI inh 17 and Polio RdRp inh intensity 109.
`Cc1ccc(S(=O)(=O)N2CCN(c3nc(NC4CCCC4)c4ccccc4n3)CC2)cc1` gave MenB inh -13, Polio RdRp inh 105 and Polio RdRp inh intensity 111.
`Cc1ccccc1NCC(=O)N/N=C\c1ccccc1` gave MenB inh -11, Polio RdRp inh 98, MbtI inh 13 and Polio RdRp inh intensity 100.
Screening Cc1ccc(/C=C/C(=O)N(Cc2ccccc2)c2ccccn2)cc1 returned MenB inh 5, Polio RdRp inh 104, MbtI inh 9 and Polio RdRp inh intensity 97.
For Cc1cc(C)n2nc(C(=O)OCc3cccc(S(=O)(=O)N(C)C)c3)nc2n1 the results were MenB inh 1, Polio RdRp inh 105, MbtI inh -3 and Polio RdRp inh intensity 108.
Screening COc1ccc(C(=O)CSc2nc3c([nH]2)c(=O)[nH]c(=O)n3C)cc1 returned MenB inh -13, Polio RdRp inh 107, MbtI inh -2 and Polio RdRp inh intensity 108.
Screening CCn1c(=S)ccc2cc(OC)ccc21 returned MenB inh -154, Polio RdRp inh 101, MbtI inh 56 and Polio RdRp inh intensity 98.
Screening CCn1nccc1C(=O)Nc1cc(C(=O)OC(C)C)cc(C(=O)OC(C)C)c1 returned MenB inh -30, Polio RdRp inh 102, MbtI inh -4 and Polio RdRp inh intensity 103.
For CN(C(=O)c1cn(C2CCCC2)c(=O)c2c1c1ccccc1n2C)c1cccc(C(F)(F)F)c1 the results were MenB inh 3, Polio RdRp inh 102, MbtI inh 4 and Polio RdRp inh intensity 106.
Screening COC(=O)C(C)NC(=O)c1ccc(C)cc1 (stereo unspecified) returned Polio RdRp inh 102, MbtI inh -11 and Polio RdRp inh intensity 106.
Screening O=C(CSc1ccc2ccccc2c1)NCCN1C(=O)CSC1=O returned MenB inh -7, Polio RdRp inh 103, MbtI inh -9 and Polio RdRp inh intensity 108.
`COCn1nc(-c2ccccc2Cl)oc1=S` gave MenB inh -9, Polio RdRp inh 106 and Polio RdRp inh intensity 102.
Screening COc1ccc(Cn2c(CCC(=O)Nc3ccc(CC#N)cc3)nc3cccnc32)cc1 returned MenB inh 6, Polio RdRp inh 101, MbtI inh 0 and Polio RdRp inh intensity 104.
For CN1CCN(S(=O)(=O)c2ccc(SCc3ccc(F)cc3)nc2)CC1 the results were MenB inh -34, Polio RdRp inh 106, MbtI inh 1 and Polio RdRp inh intensity 107.
For CCN(CC)CC#CCOC(=O)C(O)(c1ccccc1)C1CCCCC1 (stereo unspecified) the results were MenB inh -17, Polio RdRp inh 99, MbtI inh -13 and Polio RdRp inh intensity 100.
Screening Cc1sc2ncn3cnnc3c2c1-c1ccccc1 returned MenB inh -10, Polio RdRp inh 97, MbtI inh -6 and Polio RdRp inh intensity 104.
Screening O=C1CC(NNc2nc3ccccc3s2)C(=O)N1c1ccccc1 (stereo unspecified) returned MenB inh -29, Polio RdRp inh 102, MbtI inh -6 and Polio RdRp inh intensity 103.
O=C1/C(=C/c2ccc(N3CCOCC3)cc2)CCC1C1CCCC1 (stereo unspecified) was read as MenB inh 1, Polio RdRp inh 101, MbtI inh 8 and Polio RdRp inh intensity 97.
CSc1nnc2nc3c(nn12)c1ccccc1n3C was read as MenB inh -19, Polio RdRp inh 100, MbtI inh 13 and Polio RdRp inh intensity 98.
For Cc1ccc(S(=O)(=O)N2CCN(Cn3cnc4ccccc43)CC2)cc1C the results were MenB inh -15 and MbtI inh 1.
Screening Cc1ccc(S(=O)(=O)c2cn(CC(=O)NC3CCCC3)c3nc(C)ccc3c2=O)cc1 returned MenB inh 0, Polio RdRp inh 100, MbtI inh -21 and Polio RdRp inh intensity 107.
For Cc1ccc(C(=O)OCC(=O)c2cc(C)n(Cc3ccco3)c2C)cc1 the results were MenB inh -22, Polio RdRp inh 101, MbtI inh 0 and Polio RdRp inh intensity 114.
`CCC(CO)NC(=O)c1cn(-c2ccccc2)nc1-c1cccs1` (stereo unspecified) gave Polio RdRp inh 101, MbtI inh -26 and Polio RdRp inh intensity 103.
`O=C(CSc1nc2cc3c(cc2c(=O)n1Cc1ccc2c(c1)OCO2)OCO3)NCCc1ccccc1` gave MenB inh -5, Polio RdRp inh 100, MbtI inh -8 and Polio RdRp inh intensity 104.
For CCN(CC)C(=O)c1nn(-c2ccc(OC)cc2)c(=O)c2c1c1ccccc1n2C the results were MenB inh -15, Polio RdRp inh 102, MbtI inh 1 and Polio RdRp inh intensity 102.
`O=C(CSc1ncnc2sc3c(c12)CCCC3)N1CCCC1` gave MenB inh -38, Polio RdRp inh 134, MbtI inh 3 and Polio RdRp inh intensity 164.
Screening NC(/N=C/c1ccccc1O)=N\S(=O)(=O)c1ccc(N=Cc2ccccc2O)cc1 returned MenB inh -2, Polio RdRp inh 102, MbtI inh -6 and Polio RdRp inh intensity 105.
For O=C(NCn1c(=S)n(CNC(=O)c2cccnc2)c2ccccc21)c1cccnc1 the results were MenB inh -22, Polio RdRp inh 102, MbtI inh -8 and Polio RdRp inh intensity 101.
`COc1ccc(C2=NOC(C(=O)N(C)C3CCCCC3)C2)cc1` (stereo unspecified) gave MenB inh -8, Polio RdRp inh 99, MbtI inh -4 and Polio RdRp inh intensity 104.
Cc1nc2c(o1)N(c1ccccc1)C(N)=C(C#N)C2c1ccc(OC(C)C)cc1 (stereo unspecified) was read as MenB inh -2, Polio RdRp inh 101 and Polio RdRp inh intensity 90.
`O=C(Nc1ccc2c(c1)OCO2)c1ccccc1NC(=O)C1CC(=O)N(C2CCCC2)C1` (stereo unspecified) gave MenB inh -17, Polio RdRp inh 101, MbtI inh -3 and Polio RdRp inh intensity 99.
COc1cccc(NCc2nnc(SCC(=O)N3CCc4ccccc43)n2C2CCCCC2)c1 was read as MenB inh -9, Polio RdRp inh 102, MbtI inh -6 and Polio RdRp inh intensity 108.
Screening COC(=O)C1=C(C)OC(N)=C(C#N)C1c1cc(C)cc(Cn2ccc(C(F)(F)F)n2)c1C (stereo unspecified) returned MenB inh -14, Polio RdRp inh 106, MbtI inh -5 and Polio RdRp inh intensity 112.
`O=C1CN(C(=O)/C=C/c2ccc(S(=O)(=O)NCc3ccco3)cc2)c2ccccc2N1` gave MenB inh -12, Polio RdRp inh 99, MbtI inh -4 and Polio RdRp inh intensity 101.
For Cc1ccc(C)c(NC(=S)NC2CC(C)CC(C)(C)C2)c1 (stereo unspecified) the results were MenB inh -10, Polio RdRp inh 104, MbtI inh 2 and Polio RdRp inh intensity 107.
CN(Cc1ccccc1)C(=O)Cn1nc(-c2ccc(Cl)cc2)ccc1=O was read as MenB inh -22, Polio RdRp inh 103, MbtI inh 4 and Polio RdRp inh intensity 104.
CN(C)CCCNCc1ccccc1F was read as MenB inh -6, Polio RdRp inh 104, MbtI inh -2 and Polio RdRp inh intensity 107.
Screening Cc1ccc(-c2n[nH]c(=S)n2C)cc1 returned MenB inh 1, Polio RdRp inh 101, MbtI inh 73 and Polio RdRp inh intensity 103.
Screening CCCC12CCC(C(=O)O)(CC1)CC2 returned MenB inh -24, Polio RdRp inh 101, MbtI inh -4 and Polio RdRp inh intensity 101.

Screening data: PubChem BioAssay, ICCB-Longwood Screening Facility, Harvard Medical School
